Screening data from PubChem.
Ecoli growth – blocks Escherichia coli growth | OD600, 23 h; hits give low values | actives 0.21% (n = 330,000) | OD600 absorbance (no concentration beside the values);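 active = OD600 absorbance below the run mean of sample wells minus 3.6 SD, in any replicate, cut at about 0.56 in these data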;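 also: stock transfer was 300 nL into about 60 µL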
rRNA inh HTS – inhibits bacterial ribosomal RNA function over humanized ribosomes; actives 1.6% (n = 350,000); E. coli WT GFP vs humanized-ribosome RFP mutants, fluorescence, 24 h; hits give low values; DMSO median 0, no signal -100; AID 720706; GFP signal change (wild-type ribosome), % (no concentration beside the values);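 active = significant combined selectivity score with lowered wild-type GFP, culture density cut under 30%, mutant RFP and density less affected; inactive = any of these conditions unmet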; also: one replicate is shown; some compounds called inactive have numbers as strong as hits
FGF22 binding – shifts melting point of recombinant human FGF22; Q9HCT0; recombinant FGF22 thermal shift, SYPRO orange fluorescence; percent of sucrose octasulfate shift, DMSO zero; calls only at 9.99 µM; actives 1.5% (n = 340,000);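 active = melting point raised past a set limit in the mean and every replicate; inconclusive = no clear call; three in four hits are not shown here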
MLL AF4-AF9 inh – inhibitors of human MLL-AF4/AF9 interaction; P42568; AlphaScreen, biotin-AF4 peptide binding to FLAG-AF9; inhibition, % at 10 µM; actives 0.47% (n = 350,000); AID 651704;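 active = every replicate reaching a set inhibition limit, whatever the replicate mean, cut at about 25% in these data; inconclusive = mean inhibition reaches that limit but some replicates miss it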;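 also: 0% = plate neutral control median and 100% = total signal loss; the record names both 10 and 1 µM as test concentration; the first replicate is given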
Target sequence (P42568 whole entry, looked up): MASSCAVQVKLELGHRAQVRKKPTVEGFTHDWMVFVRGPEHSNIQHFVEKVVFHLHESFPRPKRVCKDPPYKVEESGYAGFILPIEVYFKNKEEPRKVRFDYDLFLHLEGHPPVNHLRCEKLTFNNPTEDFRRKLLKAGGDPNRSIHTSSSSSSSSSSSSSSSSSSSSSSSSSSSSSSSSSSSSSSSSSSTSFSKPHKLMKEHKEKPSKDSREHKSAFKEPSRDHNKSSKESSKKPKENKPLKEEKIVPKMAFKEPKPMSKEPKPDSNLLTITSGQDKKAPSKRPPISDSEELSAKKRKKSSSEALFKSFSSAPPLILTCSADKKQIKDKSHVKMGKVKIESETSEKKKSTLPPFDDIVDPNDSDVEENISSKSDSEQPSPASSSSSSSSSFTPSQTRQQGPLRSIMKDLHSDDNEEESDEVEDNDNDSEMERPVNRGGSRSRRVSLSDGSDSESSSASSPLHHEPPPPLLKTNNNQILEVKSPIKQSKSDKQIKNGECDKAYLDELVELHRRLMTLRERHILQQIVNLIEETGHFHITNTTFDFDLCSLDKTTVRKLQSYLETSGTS
HNF4A DNA FP – change in binding of human HNF4 alpha to DNA; AID 1224865; HNF4a-FITC DNA binding, fluorescence polarization, 1 h; actives 0.3% (n = 360,000); activity change, % at 10 µM; P41235; in the data active = activity change above about 30%, passing the limit was not always enough;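 also: controls were the assay level and a saturating level of protein; the project sought stronger binding though the title names inhibitors; some compounds called inactive have numbers as strong as hits; positive values seem to mean higher polarization but the record does not say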
Target sequence (P41235 whole entry, looked up): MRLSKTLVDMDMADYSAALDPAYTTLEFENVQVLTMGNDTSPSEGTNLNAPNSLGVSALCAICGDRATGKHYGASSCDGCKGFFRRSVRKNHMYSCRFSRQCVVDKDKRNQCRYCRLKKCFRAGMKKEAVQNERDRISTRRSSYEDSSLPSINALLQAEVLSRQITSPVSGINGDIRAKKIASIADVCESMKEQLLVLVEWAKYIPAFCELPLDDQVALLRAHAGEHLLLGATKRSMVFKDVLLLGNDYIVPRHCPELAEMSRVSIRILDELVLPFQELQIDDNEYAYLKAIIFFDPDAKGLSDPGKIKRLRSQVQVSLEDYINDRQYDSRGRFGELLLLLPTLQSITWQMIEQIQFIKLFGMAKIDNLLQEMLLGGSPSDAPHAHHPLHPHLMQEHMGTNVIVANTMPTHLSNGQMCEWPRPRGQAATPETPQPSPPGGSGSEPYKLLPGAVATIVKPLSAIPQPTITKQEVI
ALR inh – inhibitors of human sulfhydryl oxidase ALR; purified ALR, DTT oxidation, H2O2 HRP-luminol luminescence; AID 485317; actives 3.8% (n = 290,000); inhibition, % (concentration not given with the values);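 active = mean and each replicate at 75% or more; inconclusive = only one of the two met; inactive = neither met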;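 also: stock transfer was 7.5 nL into about 7.5 µL; 0% = neutral wells and 100% = wells with inactivated enzyme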
Vif A3G – inhibitors of Vif binding to APOBEC3G peptide, primary screen, biochemical, TR-FRET, GST-Vif 1-94, biotin-A3G peptide, dose response retest (AID 1117319) | TR-FRET GST-Vif / biotin-A3G peptide binding; higher % means a stronger effect; test concentration not given here; strong numbers were not always called active | inhibition, %, or IC50 in µM where a hit was titrated | actives 0.57% (n = 260,000);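 active = above the screen mean plus three standard deviations and confirmed in dose response; inconclusive = results disagree or hit not tested in dose response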;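 also: Vif residues 1-94 fused to GST binding biotinylated APOBEC3G peptide 110-148; 0% = full assay without inhibitor and 100% = GST in place of GST-Vif; retest series ran down from 100 µM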
rRNA inh HTS OD600 – also measured in rRNA inh HTS; calls as there; OD600 change, %; measured here: OD600 growth;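 optical density of the mix in the first replicate; 0 = DMSO median and -100 = no signal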
rRNA inh HTS RFP – recorded beside rRNA inh HTS, whose call it bears; RFP signal change, %; measured here: RFP humanized mutant strains;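 first replicate; 0 = DMSO median and -100 = no signal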
* = called active by the depositor; i = inactive; ? = inconclusive; nt = not tested or not shown; + = active, no number; & = joins results of further samples.

no. | compound | Ecoli growth | rRNA inh HTS | rRNA inh HTS OD600 | rRNA inh HTS RFP | FGF22 binding | MLL AF4-AF9 inh | HNF4A DNA FP | ALR inh | Vif A3G
1 | COc1ccc(S(=O)(=O)N2CCCCN3[C@H](CO)[C@H](c4ccc(-c5cccnc5)cc4)[C@@H]3C2)cc1 | nt | -31 | -66 | 13 | i | -3.7 | nt | nt | nt
2 | COCCN(C(=O)/C=C/c1ccccc1)c1nnc(-c2cccnc2)s1 | 0.73 | 3 | 9 | 2.9 | i | -13 | 3.4 | 2 | 6%
3 | Nc1ccc2nn(-c3ccc(F)cc3)nc2c1 | 0.67 | 12 | 7 | -3.2 | i | -6.5 | 3.2 | -16 | nt
4 | COc1cc(NC(=O)CC(C)C)ccc1NC(=O)c1ccco1 | 0.69 | 6 | 3 | -1.1 | i | 4.1 | -12 | -12 | nt
5 | CCCC(=O)N1CC2(C1)CN(C(=O)C1CCOCC1)[C@@H](CO)c1[nH]c3cc(OC)ccc3c12 | nt | 5 | 10 | -0.5 | i | 3.9 | nt | nt | nt
6 | CC1CCCC(C(=O)O)N1C(=O)CCSC(=O)c1ccccc1 (centres undefined) | 0.72 | nt | nt | nt | nt | nt | 1.1 | -1 | -6%
7 | N[C@@H](Cc1ccc(O)cc1)c1nnc([C@H](CO)NC(=O)C2CCNCC2)o1 | nt | 7 | 5 | -7.7 | i | -1.0 | 0.0 | -8 | 10%
8 | C[C@@H]1CN([C@H](C)CO)C(=O)CCCn2cc(nn2)CO[C@H]1CN(C)S(=O)(=O)c1ccccc1 | nt | 2&-1 | -8&0 | -0.7&-4.3 | i | 1.0&-1.3 | -1.6 | nt | -3%
9 | Cc1cc(SCC(=O)O)nc2ccccc12 | 0.67&0.66 | -2&-10 | -4&-4 | -2.6&-0.9 | i | -2.2&-15 | -0.9&-1.1 | -10&1 | 2%&1%
10 | CCCCN(CCCC)Cc1ccc(C(=O)NNC(=O)Nc2ccc(Cl)cc2)o1 | 0.67 | 4 | -5 | -4.3 | i | -1.8 | -0.8 | 6 | nt
11 | Cc1ccc(C(=O)COC(=O)c2cc(=O)[nH]c3ccccc23)cc1C | 0.75 | 19 | 21 | -1.1 | i | 1.4 | -2.4 | -6 | -9%
12 | O=C(NNC(=O)c1cccc2ccccc12)c1cccc(Br)c1 | 0.68 | -22* | -12* | -7.6* | i | 0.7 | 0.4 | nt | -10%
13 | CCCC(=O)N1CCCC1(C)C(=O)Nc1cc(OC)c(OC)c(OC)c1 (centres undefined) | nt | 8 | 11 | 0.9 | i | -2.5 | -1.6 | nt | nt
14 | C[C@H]1CCCCO[C@H](CN(C)Cc2ccncc2)[C@@H](C)CN([C@@H](C)CO)C(=O)c2cc(NS(=O)(=O)c3cn(C)cn3)ccc2O1 | nt | 5 | 2 | 2.4 | i | -5.7 | nt | nt | nt
15 | Nc1c(Cl)cc(-c2csc(N3CCCC3c3nc4cc(Cl)c(N5CCCCC5)cc4n3CCOCCO)n2)cc1Cl (centres undefined) | 0.68 | -3 | 1 | 27 | i | -1.2 | 0.7 | -12 | nt
16 | COc1ccc(OC)c(-c2csc(NC(=O)Cc3ccc(OC)c(OC)c3)n2)c1 | 0.67 | -10 | -17 | 4.9 | i | 7.2 | -1.3 | -4 | nt
17 | COc1ccc(C(=O)COC(=O)c2ccccn2)cc1OC | 0.66 | 3 | 3 | 0.2 | i | 2.4 | -0.4 | -2 | 3%
18 | O=c1c2ccsc2ncn1Cc1ccccc1F | 0.65 | nt | nt | nt | nt | nt | -1.6 | -2 | 23%
19 | COc1ccc(Oc2nccc(-c3ccc(F)cc3)c2C#N)cc1 | 0.76 | nt | nt | nt | nt | nt | 1.6 | nt | -4%
20 | CCN(CC)C(=O)C(=O)c1cccn1-c1c(Cl)cccc1C#N | 0.69 | -28 | -24 | 1.3 | i | -3.7 | 0.1 | -13 | 3%
21 | CN1CCN(C(=O)c2ccc(F)c(F)c2)CC1 | 0.7 | 8 | 18 | -0.6 | i | 5.4 | -0.7 | nt | nt
22 | CC(C)NC(=O)N1[C@@H]2CN(C(=O)c3ccncc3)c3ccccc3[C@@H]2[C@@H]1CO | nt | 2 | 1 | -2.2 | i | -0.7 | nt | nt | nt
23 | O=c1oc(-c2ccccc2)nc2ccsc12 | 0.67 | nt | nt | nt | nt | nt | 1.7 | -2 | -3%
24 | O=C(O)CCSc1nnc(CNc2ccc(Cl)cc2)n1Cc1ccccc1 | 0.71 | nt | nt | nt | nt | nt | 0.1 | nt | 16%
25 | O=C(Nc1nnc(C2CC2)s1)C1CCCCN1S(=O)(=O)c1ccccc1 (centres undefined) | 0.72 | -9 | -10 | 0.3 | i | -9.4 | -1.6 | nt | 24%

Entries of single compounds, quoted from the list:
COc1cc(NC(=O)CC(C)C)ccc1NC(=O)c1ccco1 across the screens: Ecoli growth: 0.69; rRNA inh HTS: 6; rRNA inh HTS OD600: 3; rRNA inh HTS RFP: -1.1; FGF22 binding: i; MLL AF4-AF9 inh: 4.1; HNF4A DNA FP: -12; ALR inh: -12; Vif A3G: nt
Cc1cc(SCC(=O)O)nc2ccccc12 across the screens: Ecoli growth: 0.67&0.66; rRNA inh HTS: -2&-10; rRNA inh HTS OD600: -4&-4; rRNA inh HTS RFP: -2.6&-0.9; FGF22 binding: i; MLL AF4-AF9 inh: -2.2&-15; HNF4A DNA FP: -0.9&-1.1; ALR inh: -10&1; Vif A3G: 2%&1%

4 of the compounds above, with values ahead of the structure.
cpd	Ecoli growth	rRNA inh HTS	rRNA inh HTS OD600	rRNA inh HTS RFP	FGF22 binding	MLL AF4-AF9 inh	HNF4A DNA FP	ALR inh	Vif A3G	canonical_smiles
7	nt	7	5	-7.7	i	-1.0	0.0	-8	10%	N[C@@H](Cc1ccc(O)cc1)c1nnc([C@H](CO)NC(=O)C2CCNCC2)o1
8	nt	2&-1	-8&0	-0.7&-4.3	i	1.0&-1.3	-1.6	nt	-3%	C[C@@H]1CN([C@H](C)CO)C(=O)CCCn2cc(nn2)CO[C@H]1CN(C)S(=O)(=O)c1ccccc1
9	0.67&0.66	-2&-10	-4&-4	-2.6&-0.9	i	-2.2&-15	-0.9&-1.1	-10&1	2%&1%	Cc1cc(SCC(=O)O)nc2ccccc12
10	0.67	4	-5	-4.3	i	-1.8	-0.8	6	nt	CCCCN(CCCC)Cc1ccc(C(=O)NNC(=O)Nc2ccc(Cl)cc2)o1

(next part)
no. | compound | Ecoli growth | rRNA inh HTS | rRNA inh HTS OD600 | rRNA inh HTS RFP | FGF22 binding | MLL AF4-AF9 inh | HNF4A DNA FP | ALR inh | Vif A3G
26 | CC(=O)NCCC(=O)Nc1nc(-c2ccc3c(c2)OCCO3)cs1 | 0.68 | -11 | -17 | -2.2 | i | 1.6 | -0.9 | 3 | nt
27 | O=C(C[C@H]1C(=O)N(C2CCCCC2)C[C@@H]1Cc1ccccc1)Nc1ccccc1 | nt | 3 | 11 | -1.1 | i | 2.2 | 1.4 | 1 | nt
28 | CCc1ccc(NC(=S)NC2CCN(Cc3ccccc3)CC2)cc1 | 0.65 | nt | nt | nt | nt | nt | -2.0 | 96* | -4%
29 | Cc1cc(NC(=O)Nc2ccc(Cl)c(Cl)c2)n(-c2ccccc2)n1 | 0.66 | -20 | -22 | -7.0 | i | -4.5 | 13 | -6 | nt
30 | C[C@@H]1CN([C@H](C)CO)C(=O)Cc2cc(NC(=O)Cn3cnnn3)ccc2O[C@H]1CN(C)Cc1ccc(C(=O)O)cc1 | nt | 2 | -1 | -0.6 | i | -3.0 | nt | nt | nt
31 | Cc1ccc(S(=O)(=O)N(CC(O)CN2CCOCC2)c2cccc([N+](=O)[O-])c2)cc1 (centres undefined) | 0.67 | -9 | 14 | -4.5 | i | -0.6 | 2.8 | -9 | nt
32 | COc1ccc(C(=O)c2[nH]c(N)c(C(=O)NCCc3c[nH]c4ccccc34)c2-c2ccc(Cl)cc2)cc1 | nt | 4 | -3 | 13 | i | -3.6 | 7.2 | nt | nt
33 | O=C(COC(=O)CSc1ccc([N+](=O)[O-])cc1)NCCC1=CCCCC1 | 0.61 | 0 | -4 | -1.2 | + | 0.1 | -2.3 | nt | ?
34 | CCc1nnc(NS(=O)(=O)c2ccc(NC(=O)c3cccc(Cl)c3)cc2)s1 | 0.7 | -17* | -6.4* | 6.4* | i | -0.8 | 2.9 | 3 | -4%
35 | COc1cc(C(=O)N2CCN(c3cc(Cl)ccc3Cl)CC2)cc(OC)c1OC | 0.68 | -33 | -66 | -1.2 | i | -5.7 | 2.7 | 43 | 3%
36 | Clc1ccc(-c2csc(N/N=C/c3ccco3)n2)cc1 | nt | 3 | 5 | 0.4 | i | 2.4 | 4.5 | -11 | nt
37 | COc1ccc(N2C(=O)CC(Nc3ccc(F)cc3)C2=O)c([N+](=O)[O-])c1 (centres undefined) | 0.7 | 9 | 2 | 0.1 | i | -1.6 | 1.9 | 24 | nt
38 | O=C(NCc1cccnc1)c1ccc(COc2ccccc2Br)cc1 | 0.65 | -9 | -11 | -0.6 | i | 5.3 | -1.5 | -1 | 14%
39 | Cc1ccc(-c2ccc3c(c2)O[C@H](CN(C)C(=O)Nc2ccc(C(F)(F)F)cc2)[C@@H](C)CN([C@H](C)CO)S3(=O)=O)cc1 | nt | 1 | 6 | 2.2 | i | 1.3 | nt | nt | nt
40 | CC(C)N(CC(N)=O)C(=O)c1sc2cc(F)ccc2c1Cl | 0.72 | 6 | -1 | 2.4 | i | 3.4 | -1.6 | 7 | -5%
41 | C=CCn1c(SCC(=O)N2CCOCC2)nc2sc(CC)cc2c1=O | 0.66 | -7 | -7 | -3.4 | i | 0.2 | -1.7 | 3 | nt
42 | CCC[C@H](CN[C@@H](CNC)[C@H](C)O)NCCc1ccc(OC)cc1 | nt | 8 | 12 | 3.8 | i | 1.6 | -6.9 | 1 | nt
43 | O=C(O)c1ccc(N2C(=O)c3cccnc3C2=O)cc1 | 0.69 | 11 | 9 | -0.9 | i | 3.3 | 1.0 | -5 | 74%
44 | O=C(C[C@H]1CC[C@@H]2[C@H](COC[C@H](O)CN2Cc2ccc(F)cc2)O1)N1CCc2ccccc2C1 | nt | -6 | -12 | 2.4 | i | -2.3 | nt | nt | nt
45 | CS(=O)(=O)Nc1ccc2c(c1)[C@H]1C[C@@H](CC(=O)NCc3cc(F)ccc3F)O[C@H](CO)[C@H]1O2 | nt | -4 | 6 | 0.3 | i | 1.9 | nt | nt | nt
46 | Cc1ncc([N+](=O)[O-])n1CC(=O)Nc1ccc(F)c(Cl)c1 | 0.68 | 9 | 10 | 2.5 | i | -1.4 | 1.4 | 0 | 2%
47 | COCCNC(=O)CSc1nc2sc(C)c(C)c2c(=O)n1-c1ccccc1 | 0.7 | 16 | 8 | 2.4 | i | -0.3 | 2.5 | -3 | 10%
48 | COc1ccc(C(=O)Nc2ccc3c(c2)C(=O)N(C)C[C@H](OC)[C@@H](C)CN(C(C)=O)[C@H](C)CO3)cc1 | nt | -1 | 4 | -2.1 | i | 1.0 | nt | nt | nt
49 | Fc1ccc(-c2ccc(/C=N\n3cnnc3)o2)cc1Cl | nt | 7 | 15 | 2.8 | i | 4.3 | 1.7 | -2 | nt
50 | Cc1cc(Cl)ccc1C(=O)C1CCCN(C(=O)c2cncs2)C1 (centres undefined) | 0.68 | 7 | -1 | -0.8 | i | -6.4 | 3.9 | -5 | nt
51 | COCC(=O)N1CC[C@@H]2[C@H]1c1cc(-c3ccc(OC)cc3)ccc1N(C)[C@H]2CO | nt | -3 | -6 | -1.9 | i | 2.5 | nt | nt | nt

An excerpt; count on the stated rates, not on these rows.
